BJeLR viability = kills HRASV12-expressing BJeLR cells; BJeLR (HRASV12) viability, CellTiter-Glo ATP luminescence, 48 h; reference of the scale not given here; inhibition, % (test concentration not listed); hit rate 0.17% among 300,000; AID 1554;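 active = replicate mean above 50%; inconclusive = above 50% but judged a plate artefact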;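 note: 50 nL library stock added to about 25 µL; numbers are from one replicate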
PrP 5UTR inh = inhibition of PrP 5' UTR reporter expression | cell-based PrP 5' UTR mRNA reporter, plate reader | inhibition, % (no concentration beside the values) | hit rate 0.35% among 340,000 | AID 488862;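 active = every replicate at 50% or more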;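 note: 0 = median of the neutral control wells; tested in H4 reporter cells; numbers are from one replicate; inactives centre near -14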
Autofluor counter = flagged as autofluorescent in microsphere protease counterscreen. compound autofluorescence counterscreen, microsphere flow cytometry; stronger effect = higher value. fluorescence intensity (no concentration beside the values). hit rate 3.1% among 360,000. AID 624483;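 active = at least 3 SD above the mean of all compounds, about 16000 in these data; inconclusive = too few beads counted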;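 note: 100 nL of 1 mM stock went into each well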
* = called active by the depositor; u = inconclusive; x = no result given. An excerpt; count on the stated rates, not on these rows.

SMILES	BJeLR viability	PrP 5UTR inh	Autofluor counter
CCCNC(=O)C1(C)CCCN(C(=O)c2ccc3snnc3c2)C1 (configuration not stated)	x	x	4122
CCOC(=O)c1c(O)c2cc(Cl)ccc2n(CC)c1=O	18	x	4266
COc1ccc(OC)c(N/C(=N/C(=S)Nc2ccccc2)Nc2nc(C)cc(C)n2)c1	-6	x	5622
c1ccc([C@@H]2CO2)cc1	-6	x	5857
O=C(CO)N/N=C/c1ccc(Cl)cc1	2	x	10981
O=c1oc(-c2ccccc2F)nc2scc(-c3ccccc3)c12	-4	x	3365
CNC(=O)/C(C#N)=C/c1ccc(-c2nc3ccccc3s2)o1	7	x	4322
CC(C)(C)NC(=S)N/N=C\c1ccc(-c2ccc([N+](=O)[O-])cc2)o1	8	x	4817
Nc1nnn(CC(=O)N/N=C/c2ccncc2)n1	3	x	4460
CC(=O)Nc1cccc(C(=O)N/N=C/c2cccc(C)n2)c1	7	x	3846
COc1cccc(/C=N/NC(=O)Cn2cnc3c2c(=O)n(C)c(=O)n3C)c1OC	4	x	6446
COc1ccccc1-c1ccc(/C=N/O)o1	-6	x	6018
C=C1c2cc3c(cc2NC(=S)N1Cc1ccccc1)OCO3	-1	x	3067
CC(/C=N\NC(=O)Cn1cncn1)=C/c1ccc(C(C)C)cc1	12	x	6254
COc1ccccc1/C=N/OCc1ccc(C#N)cc1	0	x	3139
O=C(N/N=C/c1ccccc1O)c1ccc2c(c1)OCO2	12	x	3014
Cc1cc2nc(-c3ccc(=O)[nH]c3)n(Cc3ccccc3)c2cc1C	11	x	3674
Cn1c(=O)[nH]c(=O)c2c1nc(N/N=C/c1cccnc1)n2Cc1ccc(Cl)cc1	-8	x	6282
Nc1nnc(CC(=O)N/N=C/c2ccccc2OCc2ccc(F)cc2)s1	2	x	6553
O=S(=O)(N/N=C\C=C\c1ccccc1)c1ccc(Cl)cc1	6	x	11217
O=C1CCCCCCCCCC/C(=N\O)CCCO1	-9	x	4613
CCN(CC)c1ccc(/C=N/Nc2nc(C)cc(C)n2)cc1	6	x	5441
C/C(=N\Nc1nc(C)cc(C)n1)c1ccc(C)o1	-1	x	6189
C/C(CC(c1ccccc1)c1c(O)c2ccccc2oc1=O)=N\Nc1ccc([N+](=O)[O-])cc1[N+](=O)[O-] (configuration not stated)	8	x	3984
N/N=C1\CCCc2c1[nH]c1ccc([N+](=O)[O-])cc21	-14	x	4514
Cc1ccc(S(=O)(=O)N2CCN(CC(=O)N/N=C\c3ccc(O)c(O)c3)CC2)cc1	11	x	4106
O=C(CN1CCN(Cc2ccccc2Cl)CC1)N/N=C/c1cccs1	10	x	3915
C[C@]12CCC3C(CC[C@H]4CC(O)CC[C@]34C)C1CC/C2=N/O (some centres not stated)	0	x	3872
C(=N\n1cnnc1)/c1ccc(OCc2ccccc2)cc1	2	x	9724
COc1cc(/C=N/NC(=O)Cn2cnc3c2c(=O)n(C)c(=O)n3C)cc(OC)c1OC	1	x	4718
CCN(CC)/C(=N\S(=O)(=O)c1ccc(F)cc1)c1ccccc1	7	x	3362
Cc1ccc(-n2c(C)cc(/C=N/NC(=O)c3ccncc3)c2C)cc1	-1	x	9909
O=C(N/N=C/c1cc(Br)c(O)c([N+](=O)[O-])c1)C(O)(c1ccccc1)c1ccccc1	-6	x	3813
S=c1[nH]nc(-c2cccs2)n1/N=C/c1cn(-c2ccccc2)nc1-c1cccs1	-2	x	5638
C=CCNC(=S)Nc1sc2c(c1C(N)=O)CCCC2	-1	x	5974
Clc1ccccc1C1=Nn2c(nnc2-c2ccco2)SC1	-2	x	4645
CC(/C=N/NC(=O)c1ccccc1C)=C\c1ccccc1	-5	x	5395
C/C(=N\Nc1ccccn1)c1ccc(Br)s1	-2	x	3243
c1ccc(NNC2=NCCCCC2)cc1	-3	x	3754
CC(=O)Nc1ccc(-c2csc(N/N=C\c3ccncc3)n2)cc1	3	x	5973

Shown with two lines to a compound: part of the list above.
Every second line gives: BJeLR viability | PrP 5UTR inh | Autofluor counter
O=C1CCCCCCCCCC/C(=N\O)CCCO1
    -9 | x | 4613
O=C(CN1CCN(Cc2ccccc2Cl)CC1)N/N=C/c1cccs1
    10 | x | 3915

(further entries)
SMILES	BJeLR viability	PrP 5UTR inh	Autofluor counter
CN(C)c1ccc(/C=C(/NC(=O)c2ccccc2)C(=O)N/N=C/c2ccc([N+](=O)[O-])c(O)c2)cc1	3	x	11164
CCC1S/C(=N/N=C/c2ccco2)N(Cc2ccccc2)C1=O (configuration not stated)	-2	x	u
O=C(N/N=C/c1cc(Br)ccc1O)C(=O)Nc1ccccc1OC(F)(F)C(F)F	7	x	11331
Cc1cc(N/N=C/c2ccccc2)nc(N2CCOCC2)n1	6	x	4598
CC(C)/C(=N\NC(=O)Nc1ccccc1)c1ccccc1	-23	x	10487
CCC/C(=N\NC(=O)C1CC1)c1ccccc1	-8	x	3697
CCN1C(=O)/C(=C/C2=Cc3ccccc3OC2C)SC1=S (configuration not stated)	1	x	5887
Cc1cc(C)cc(OCc2ccc(C(=O)N3N=C(C(F)F)CC3(O)C(F)F)o2)c1 (configuration not stated)	-4	x	9942
CC1(C)N=C(N)N=C(N)N1c1ccc(Oc2ccc(Cl)cc2)c(Cl)c1	27	x	3724
O=[N+]([O-])c1ccccc1N/N=C/c1cc2ccccc2nc1Cl	18	x	9826
C/C(=N\N=C1\NC(=O)C(CC(=O)O)S1)c1ccccn1 (configuration not stated)	-4	x	3260
O=C(N/N=C/c1ccco1)C1(O)c2ccccc2-c2ccccc21	1	x	6063
COc1ccccc1/C=C/C=N/n1c(-c2ccc(F)cc2)n[nH]c1=S	-4	x	5981
O=S(=O)(N/N=C/c1ccc(N2CCOCC2)cc1)c1ccc(Br)cc1	-1	x	u
O=C1[C@@H]2Cc3c([nH]c4ccccc34)C(c3ccccc3)N2C(=O)CN1C1CC1 (some centres not stated)	-6	x	3742
CCN(CC)c1ccc(/C=N/Nc2nc(C)cc(=O)[nH]2)cc1	-2	x	10217
CCOC(=O)c1ccc(-c2ccc(/C=N/NC(=O)c3cncc(Br)c3)o2)cc1	1	x	3685
C(=N\Nc1nccc(-c2cccnc2)n1)/c1ccccc1	-8	x	4248
COc1ccc(CNc2ncnc3c2[nH]c2ccccc23)cc1	4	x	5673
COc1ccccc1/C=C/C=N/n1c(-c2n[nH]c3c2CCC3)n[nH]c1=S	-6	x	6203
CC1=C(C#N)S(=O)(=O)C(C#N)C(c2ccccc2)C1 (configuration not stated)	4	x	5791
CCN(CC)CCn1c(=N)n(CC(=O)c2ccc(Br)s2)c2ccccc21	-4	x	4486
Cc1cccc(Nc2nc(N)nc(CCl)n2)c1C	56*	x	4132
O=C(CSc1cccc2cccnc12)N/N=C/c1ccc(O)cc1	-14	x	3333
CCn1c(SCC(=O)N/N=C(\C)c2ccncc2)nnc1-c1ccc(C)cc1	-9	x	5905
C/C(N=Nc1nc2ccccc2s1)=N\Nc1ccccc1O	-3	x	4928
COc1cc(/C=N/Nc2snc(SC)c2C#N)ccc1O	33	x	11056
CN(C)CCOc1ccc(-c2c(-c3ccsc3)sc3ccccc23)cc1	x	-8	3082
O=C(COC(=O)C1=Cc2ccccc2OC1)NCc1ccc(F)cc1	x	1	2948
CC(C)(C)OC(=O)C[C@@H]1C/C=C\C[C@@H](CC(=O)N(CCO)Cc2ccccc2)C(=O)N2CCC[C@@H]2COC1=O	x	-24	3753
NC(N)=NCCCS(=O)(=O)Nc1ccc(Nc2c3ccccc3nc3cc([N+](=O)[O-])ccc23)cc1	x	-44	3335
COc1cc2c(c(OC)c1OC)-c1ccc(SC)c(=O)cc1C(NC(=O)C(F)(F)F)CC2 (configuration not stated)	x	45	3854
C#CCOCCOCCOCCNc1nc(N2CCN(C(=O)[C@H]([C@@H](C)CC)n3cc(CCCCN)nn3)CC2)nc(N2CCN(C(=O)[C@H](CCCCN)n3cc(CCC(=O)O)nn3)CC2)n1	x	-9	4102
CCOC(=O)[C@H]1[C@H]2COc3ccc(Br)cc3[C@@H]2N2C(=O)CN(Cc3ccccc3)C(=O)[C@@]12C	x	-28	3637
COc1ccc(C(=O)/C=C2\C(=O)Nc3ccc(Br)cc32)cc1	x	49	3202
CCOC(=O)[C@@H](C)NS(=O)(=O)N(Cc1ccccc1)[C@H](C(=O)OC)C(C)C	x	-29	3756
Cc1ccc([C@@H]2CC=C(C(=O)O)[C@H](c3ccccc3F)N2S(=O)(=O)c2ccc(C)cc2)cc1	x	-2	3248
Cc1ccc(S(=O)(=O)N2CC=C(N)N2)cc1	x	-9	3816
CN(Cc1ccccc1)C(=O)c1cccc(NC(=O)Cc2ccc(NC(=O)C3CCCN(C(=O)CCc4ccccc4)C3)cc2)c1 (configuration not stated)	x	4	3757
C[C@H](CO)N1C[C@H](C)[C@@H](CN(C)C(=O)Nc2ccc3c(c2)OCO3)Oc2ccc(NC(=O)C3CCCCC3)cc2C1=O	x	-29	3553
O=C(C[C@H]1C/C=C\C[C@@H](Cc2ccc(F)cc2)C(=O)O[C@H](c2ccccc2)CNC1=O)N[C@@H](CO)Cc1ccccc1	x	-11	3935
COC(=O)C1=C(c2ccc(C(C)=O)cc2)C[C@@H]2CC[C@H]1N2C(=O)NC1CCCCC1	x	-11	3241
CCOC(=O)N1CCC(=NNC(=O)c2ccccc2F)CC1	x	0	2518
CCCCCCCCNS(=O)(=O)CCNCCc1ccccc1	x	-22	4082
C=CCNc1oc(-c2ccc(-c3ccccc3)cc2)nc1C#N	x	-10	3719
COC(=O)C1=C(c2ccc(-c3ccccc3)c(F)c2)C[C@@H]2CC[C@H]1N2C(=O)NCc1ccco1	x	-10	2934
CCc1nc(N)nc(N)c1-c1ccc(Cl)c([N+](=O)[O-])c1	x	-16	3728
CC1CCN(C(=O)CN2C(=O)C(=O)N(C(C)C)C2=O)c2ccccc2S1 (configuration not stated)	x	2	3859
Cc1ccc2c(C)nc(Nc3nc(CSc4nc5ccccc5s4)cc(=O)[nH]3)nc2c1	x	0	4855

Among those listed so far, these have fluorine.
SMILES	BJeLR viability	PrP 5UTR inh	Autofluor counter
O=c1oc(-c2ccccc2F)nc2scc(-c3ccccc3)c12	-4	x	3365
Nc1nnc(CC(=O)N/N=C/c2ccccc2OCc2ccc(F)cc2)s1	2	x	6553
CCN(CC)/C(=N\S(=O)(=O)c1ccc(F)cc1)c1ccccc1	7	x	3362
O=C(N/N=C/c1cc(Br)ccc1O)C(=O)Nc1ccccc1OC(F)(F)C(F)F	7	x	11331
Cc1cc(C)cc(OCc2ccc(C(=O)N3N=C(C(F)F)CC3(O)C(F)F)o2)c1 (configuration not stated)	-4	x	9942
COc1ccccc1/C=C/C=N/n1c(-c2ccc(F)cc2)n[nH]c1=S	-4	x	5981
O=C(COC(=O)C1=Cc2ccccc2OC1)NCc1ccc(F)cc1	x	1	2948
COc1cc2c(c(OC)c1OC)-c1ccc(SC)c(=O)cc1C(NC(=O)C(F)(F)F)CC2 (configuration not stated)	x	45	3854
Cc1ccc([C@@H]2CC=C(C(=O)O)[C@H](c3ccccc3F)N2S(=O)(=O)c2ccc(C)cc2)cc1	x	-2	3248
O=C(C[C@H]1C/C=C\C[C@@H](Cc2ccc(F)cc2)C(=O)O[C@H](c2ccccc2)CNC1=O)N[C@@H](CO)Cc1ccccc1	x	-11	3935
CCOC(=O)N1CCC(=NNC(=O)c2ccccc2F)CC1	x	0	2518
COC(=O)C1=C(c2ccc(-c3ccccc3)c(F)c2)C[C@@H]2CC[C@H]1N2C(=O)NCc1ccco1	x	-10	2934

From PubChem
